hNpr1 antagonist – Natriuretic polypeptide receptor (hNpr1) antagonism - Primary qHTS; 76,000 compounds, 1.6% hits; Atrial natriuretic peptide receptor 1 (Homo sapiens), P16066; AID 1347048, 2019; Potency, µM (highest dose often 46.3 µM), inactives show at the highest dose activity change, negative = inhibition, hits mostly inhibitors; HEK293 hNpr1 GloSensor cGMP, ANP-stimulated luminescence; active = well fitted inhibition curve with a large enough effect; inconclusive = small, poorly fitted or top-dose-only effect; inactive = no such curve, though single readings can be large or run the other way;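 also: nearly all actives have a fitted effect of over 60% in size; nearly all hits also lower the signal before the agonist is added; a reference antagonist and vehicle were the controls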
Target sequence (P16066 whole entry, looked up): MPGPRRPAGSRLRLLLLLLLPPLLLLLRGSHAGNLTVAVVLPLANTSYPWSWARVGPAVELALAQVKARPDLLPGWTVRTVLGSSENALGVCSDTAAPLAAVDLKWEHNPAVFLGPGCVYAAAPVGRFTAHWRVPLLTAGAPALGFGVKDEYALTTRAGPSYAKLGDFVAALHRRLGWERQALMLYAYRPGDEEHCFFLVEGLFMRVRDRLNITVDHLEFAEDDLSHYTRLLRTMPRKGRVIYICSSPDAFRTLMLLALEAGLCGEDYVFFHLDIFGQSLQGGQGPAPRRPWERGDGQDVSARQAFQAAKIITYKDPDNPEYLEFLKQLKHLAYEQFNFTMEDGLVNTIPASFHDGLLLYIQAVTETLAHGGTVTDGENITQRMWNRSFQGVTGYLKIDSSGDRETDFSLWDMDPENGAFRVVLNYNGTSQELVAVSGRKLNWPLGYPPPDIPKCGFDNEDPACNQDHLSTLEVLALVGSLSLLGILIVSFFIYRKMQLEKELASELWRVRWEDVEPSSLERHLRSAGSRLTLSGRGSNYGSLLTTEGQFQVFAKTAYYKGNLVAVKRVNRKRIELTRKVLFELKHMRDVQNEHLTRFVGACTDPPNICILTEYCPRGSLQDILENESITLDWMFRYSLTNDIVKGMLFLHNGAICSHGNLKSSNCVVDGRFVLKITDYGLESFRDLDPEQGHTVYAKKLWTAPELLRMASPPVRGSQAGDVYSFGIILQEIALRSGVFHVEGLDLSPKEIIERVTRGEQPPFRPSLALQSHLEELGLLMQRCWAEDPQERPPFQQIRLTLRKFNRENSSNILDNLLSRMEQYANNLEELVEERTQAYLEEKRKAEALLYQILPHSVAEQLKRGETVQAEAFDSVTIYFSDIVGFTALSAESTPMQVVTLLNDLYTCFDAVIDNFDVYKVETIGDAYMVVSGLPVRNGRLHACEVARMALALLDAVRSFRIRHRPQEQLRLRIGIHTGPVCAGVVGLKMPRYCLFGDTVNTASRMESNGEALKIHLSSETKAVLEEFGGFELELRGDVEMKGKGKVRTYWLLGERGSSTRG
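Compound pre-incubated 30 min at room temperature on GloSensor-loaded HEK293 cells stably carrying hNpr1 and the pGS-40F cGMP biosensor. Stimulation uses hNppA at 0.1 nM final; luminescence is taken at baseline and 20 min post-agonist.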
* marks the source's active call; other numbers are inactive results; ? = inconclusive; & = joins results of further samples; [ ] = dose if it differs, or a comment. % is scaled to controls: 0 for no effect and ±100 for the full control effect; potency is read from the fitted curve at half-maximal effect. Not all compounds are listed. The share of hits here may be higher or lower than overall.

SMILES	hNpr1 antagonist
COc1ccc(-c2noc([C@@H]3CCCN3C(=O)c3ccc(Cl)cc3OC)n2)cc1	0%
Cc1ccsc1C(=O)N1CCC2(CC1)N(c1ccccc1)C(=O)CS2(=O)=O	1%
NC(=O)CNC(=O)C1=C[C@@H](NC(=O)c2cccs2)[C@@H](O)[C@H](O)C1	-2%[70.6 µM]
COc1ccc(CCNC(=O)CN2C(=O)C(c3ccccc3)=NC23CCCC3)cc1OC	-3%
Cc1noc([C@@H](C)NC(=O)c2ccc(Cl)cc2)c1C(=O)O	-1%[70.6 µM]
O=C1Cc2c(-c3cccc(N4CCOCC4)c3)n[nH]c2CN1CCOc1ccccc1	-5%[70.6 µM]
COCCN1C(=O)C(CC(=O)NCCCn2cccn2)=C2CCCCC21 (centres undefined)	-2%
C=CCC(O)(CC=C)CNC(=O)C1CCC(=O)N(CCc2ccccn2)C1 (centres undefined)	0%
CCOc1ccccc1C1NC(=O)N(CC(=O)Nc2c(C)cccc2CC)C2=C1C(=O)OC2 (centres undefined)	-4%
Cc1ccccc1C(=O)N1CCC2(C1)C(=O)N(CCc1ccccc1)c1ccccc12 (centres undefined)	-2%&-11%
Cn1cc(CN2C[C@H](C(=O)Nc3ccccc3)C[C@@H]2c2cccc(C(F)(F)F)c2)cn1	-18%[70.6 µM]
Cc1ccc(C(=O)NC2CCN(c3cc(C(F)(F)F)nc(C)n3)CC2)cc1	?
COc1ccc2[nH]c(CNC(=O)C(c3ccc(F)cc3)N(C)C)cc2c1 (centres undefined)	-10%
Cc1nn(-c2ccc(C(C)(C)C)cc2)c(C)c1[C@@H]1C=C[C@@H](NC(=O)CC(C)(C)CC(=O)O)C1	1%
O=C(c1ccoc1)N1CCN(C(=O)N2CC3CC(C2)[C@H]2CCCC(=O)N2C3)CC1 (some centres undefined)	7%
O=C(c1ccccn1)N1CC[C@@H]2[C@@H](CCC(=O)N2CCc2cnc[nH]2)C1	0%
CN(C)c1ccc(-c2ccnc(N[C@H]3CO[C@H]4[C@@H]3OC[C@@H]4NC(=O)NCc3ccccc3)n2)cc1	-12%
O=C(NC1C[C@H]2CC[C@@H](C1)N2C(=O)c1ccco1)c1ccncc1 (some centres undefined)	1%
O=C(NCc1ccc2c(c1)OCO2)C1CCc2sc(C(=O)N3CCCCCC3)cc2C1 (centres undefined)	22µM*
COc1ccccc1CNC(=O)C1(CCO)CCN(c2ncccn2)C1 (centres undefined)	-1%
CCCNC(=O)N1CCC2(CC1)CC(N(C(=O)NC(C)C)C1CC1)CCO2 (centres undefined)	0%
CCCN(CC1CCOC1)S(=O)(=O)c1cccc(OC)c1 (centres undefined)	0%
CC(C)c1noc(-c2cn(C3CCN(C(=O)c4cccs4)CC3)nn2)n1	0%
Cc1cc(C)n(CC(=O)N2C[C@@H](Oc3ccccc3)C[C@H]2C(=O)N2CCCC2)n1	-2%
CC(=O)NC1(C)CN(Cc2ccc(-c3ccccc3OCc3ccccc3)s2)C1	?
CN(C)C[C@@H]1CN(Cc2ccccc2)C[C@H]1NC(=O)c1nccn1C	-3%
CC[C@H]1CN(C(=O)Nc2ccccc2)CC[C@H]1CC(=O)N(C)CC#N	2%[70.6 µM]
CN(CC1CCOC1)C(=O)c1ccc(F)c(F)c1 (centres undefined)	2%
O=C(c1csc2nc(-c3ccc(C(F)(F)F)cc3)cn12)N1CCN2CCCC2C1 (centres undefined)	2%
CCn1nc(-c2ccc3c(c2)OCO3)nc1N(C)C	10%
COc1ccc(OCc2nc(C)c(CCO)c(=O)n2CC(=O)Nc2ccc(C)c(C)c2)cc1	-8%
CCCN1C(=O)C(CC(=O)N2CCCC2)Sc2ncccc21 (centres undefined)	3%
CC[C@H]1CN(C(=O)C(C)(C)C)CC[C@H]1CC(=O)NCc1ccco1	1%[70.6 µM]
COc1ccc2nc([C@H]3CCN(Cc4cccc(Cl)c4)C3)[nH]c2c1	?
Cc1noc(C)c1CC(=O)N1CCCC(c2nn(C)c(=O)n2-c2ccccc2)C1 (centres undefined)	0%
O=C(c1cccnc1)N1C[C@@H]2OCC(=O)N(Cc3ccncc3)[C@@H]2C1	-3%[70.6 µM]

Given field by field: entries from further up
CC(=O)NC1(C)CN(Cc2ccc(-c3ccccc3OCc3ccccc3)s2)C1
  hNpr1 antagonist: ?
CN(C)C[C@@H]1CN(Cc2ccccc2)C[C@H]1NC(=O)c1nccn1C
  hNpr1 antagonist: -3%
CC[C@H]1CN(C(=O)Nc2ccccc2)CC[C@H]1CC(=O)N(C)CC#N
  hNpr1 antagonist: 2%[70.6 µM]
CN(CC1CCOC1)C(=O)c1ccc(F)c(F)c1 (centres undefined)
  hNpr1 antagonist: 2%

Next entries follow.
SMILES	hNpr1 antagonist
O=C(CN1C(=O)NC2(CCCCC2)C1=O)Nc1ccc(F)cc1F	3%
COC[C@H]1C[C@@H](NC(=O)c2cc(C)oc2C(F)(F)F)[C@H](O)[C@@H]1O	1%[70.6 µM]
O=C(c1ccc(F)cc1)N1CCC2(CC1)CC(N(Cc1ccc(F)cc1)C1CC1)CCO2 (centres undefined)	?
O=C(Nc1ccc2c(c1)OCCO2)N1CCCC(CN2CCOCC2)CC1 (centres undefined)	-9%
O=C1Nc2ccc(-c3ccsc3)cc2C(=O)N2CCN(C(=O)CO)C[C@H]12	-2%[70.6 µM]
N#Cc1cccc(C(=O)Nc2ccc([C@H]3OCC(=O)N(Cc4cccnc4)[C@@H]3CO)cc2)c1	-7%
COc1ccc(C(=O)NCc2nnc3ccc(-c4ccc(Cl)cc4)nn23)cc1F	2%
O=C(NCc1nnc2cc(-c3nc(C4CC4)no3)ccn12)C1(c2ccccc2)CC1	7%
Cc1nn(-c2ccc(C(F)(F)F)cc2)c(C)c1[C@@H]1C=C[C@@H](NC(=O)NC2CCCCC2)C1	-20%
O=C(NC1CCCCCC1)C1CCN(C(=O)c2ncn3c2COC(c2ccc(F)cc2)C3)CC1 (centres undefined)	-6%
COc1cccc(CCc2ccccc2C(=O)N[C@@H]2COCC[C@H]2O)c1	1%
O=C1CC(c2ccccc2)N(Cc2ccncc2)CCCN(C(=O)c2ccc3ncccc3c2)CCN1 (centres undefined)	1%
COc1cccc(CN2Cc3cc(NC(=O)COc4ccccc4)ccc3OC(C)C2=O)c1 (centres undefined)	-28%
CC(=O)Nc1ccc(S(=O)(=O)NC[C@@H]2C=C(C)[C@H](CC(=O)N3CCCC3)C[C@H]2C(C)C)cc1	2%
Cc1cccc(C(=O)N2CCC3(CCC(=O)N(C(C)C(=O)O)C3)CC2)c1 (centres undefined)	2%
O=C(NCCc1c[nH]c2ccc(Cl)cc12)C1CC(=O)N(c2n[nH]c3ccccc23)C1 (centres undefined)	-19%
c1ccc(-c2nnc3ccc(NC4CCCCC4)nn23)nc1	-18%[70.6 µM]
CC(=O)N1CCNc2cc(NCc3ccc(F)cc3)ncc2C1	-10%[70.6 µM]
Cn1cnc(S(=O)(=O)N2CCCC(Cc3noc(C4CC4)n3)C2)c1 (centres undefined)	0%
CNC(=O)[C@@H]1CN(C(=O)Cc2cccc(Cl)c2)C[C@H]1CO	1%
Cc1nc(CC2CCN(C(=O)C3CCC3)CC2)n[nH]1	16%
Cc1cc(Cl)ccc1S(=O)(=O)N1CCCC(Cn2cnc3cccnc32)C1 (centres undefined)	-18%
Cc1ccc(C2Cn3nnc(-c4nc(-c5ccccc5Cl)no4)c3CO2)c(C)c1 (centres undefined)	4%
CN(Cc1cccnc1)C1CCOc2ccccc21 (centres undefined)	0%[70.6 µM]
O=C(NCC1CCCO1)c1ccc2c(c1)CC(=O)N2Cc1ccccc1 (centres undefined)	0%
O=[S+]([O-])(c1ccccc1)N1CCc2nc(C3CC3)nc(-c3ccc(Cl)cc3)c2C1	0%
CNS(=O)(=O)c1ccc(CN2CC3(CCNCC3)CC2C(=O)O)cc1 (centres undefined)	3%
CCN(CC)C(=O)[C@@H]1CCC[C@@H](NC(=O)c2ccccc2)CN(C)C(=O)C1	1%[70.6 µM]
CN(C)CC(O)c1cc2n(n1)CCN(C(=O)CCc1ccc(=O)[nH]n1)C2 (centres undefined)	3%
O=C(NC1CCN(c2cc(-c3ccccc3)[nH]n2)CC1)c1cccnc1	-2%
CS(=O)(=O)N(Cc1cccnc1)C1CN(C(=O)c2c[nH]c3ccccc23)C1	-9%
Cc1ccc(C)c(CN2CCn3c(nn(CC4COc5ccccc5O4)c3=O)C2=O)c1 (centres undefined)	-18%
Cc1nn(-c2ccccc2[N+](=O)[O-])c(C)c1[C@@H]1C=C[C@@H](NCc2ccc(C(C)C)cc2)C1	?
O=C(c1cnccn1)N1CCC(c2nc(-c3ccncc3)no2)C1 (centres undefined)	-6%
O=C(NC1CC1)c1ccc(-c2ccc(N3CCCCC3)nc2)cc1	1%
CC(C)N1C(=O)C2(CCCCC2)C1C(=O)NCCCN1CCN(c2ccccc2)CC1 (centres undefined)	3%
Fc1cc(F)cc(Cc2nc3nccc(-c4ccsc4)n3n2)c1	-3%
COc1ccc(Cn2c(-c3ccc(Cl)cc3)nc(C)c(CCO)c2=O)cc1F	0%
C#CCNC(=O)[C@H]1O[C@H](CCN(C)CC#C)CC[C@@H]1O	2%[70.6 µM]
Cc1ncsc1CN1CCCN(S(C)(=O)=O)C(c2ccccc2)CC(=O)NCC1 (centres undefined)	-9%
O=C(CN1CC2CC(C1)[C@H]1CCCC(=O)N1C2)NC1CCCC1 (some centres undefined)	0%
COC1CCC12CCN(C(=O)c1cccc(C#N)c1)CC2 (centres undefined)	-4%
Cn1ncc(N2CCC(NC(=O)C3CCCCC3)CC2)cc1=O	-19%
CC(=O)N1CCC(Cc2ncc(C)n2C(C)C)C1 (centres undefined)	2%
COCc1ccc2c(c1)c(OC(C)(C)C(=O)Nc1cccnc1)nn2Cc1ccccc1	0%[70.6 µM]
O=C(c1ccc(Cn2cccn2)o1)N1CCC2(CC1)c1ccccc1CC2O (centres undefined)	2%
CC(C)CN1C(=O)CCc2cc(NC(=O)c3c(F)cccc3F)ccc21	-2%
CCc1nc2c(c(-c3ccc(Cl)cc3)n1)CCN(Cc1ccc(OC)cc1)CC2	2%
Cc1cnc(CC2CCN(C(=O)N(C)C)C2)n1CC1CC1 (centres undefined)	3%
CC(C)NC(=O)c1coc(COc2ccc3c(c2)C(c2cccc(F)c2)N(C(=O)C2CC2)CC3)n1 (centres undefined)	-13%
CCCC(=O)N1CCC(Oc2ccc3c(cnn3CCC(=O)O)c2)CC1	7%[70.6 µM]
CN(C)Cc1cc(CC2(NC3CCC3)COC2)no1	6%[70.6 µM]
Cc1noc([C@@H]2CN(C(=O)CC3=CCCCC3)C[C@H]2CO)n1	6%
O=C1CCN(C(=O)C2CCCCC2)CCCC(c2nc(-c3cccnc3)no2)CCN1 (centres undefined)	5%
CCn1ccc2oc(C)c(C(=O)NCc3ccccc3Cl)c2c1=O	4%
CCN(CC)c1ccc(C(=O)N2CCC(n3cc(-c4nc(C)no4)nn3)CC2)cc1	-7%
O=C1Nc2ccccc2OCC12CCN([S+](=O)([O-])c1cccc(C(F)(F)F)c1)CC2	-13%
O[C@@H]1C[C@@H](c2nc(-c3ccc4c(c3)OCO4)no2)N(Cc2ccc(C(F)(F)F)cc2)C1	-11%[70.6 µM]
CC(=O)N[C@H]1CO[C@H]2[C@@H]1OC[C@@H]2n1nnnc1Oc1cccc(N(C)C)c1	-1%[70.6 µM]
COc1ccc(-c2ccccc2)cc1N1C(=O)[C@@H]2C[C@H]1CN2C(=O)C(C)(C)N	6%

Molecules listed so far containing a cyano group:
SMILES	hNpr1 antagonist
CC[C@H]1CN(C(=O)Nc2ccccc2)CC[C@H]1CC(=O)N(C)CC#N	2%[70.6 µM]
N#Cc1cccc(C(=O)Nc2ccc([C@H]3OCC(=O)N(Cc4cccnc4)[C@@H]3CO)cc2)c1	-7%
COC1CCC12CCN(C(=O)c1cccc(C#N)c1)CC2 (centres undefined)	-4%

(more compounds)
SMILES	hNpr1 antagonist
Cc1ccc(C(=O)N2CC3(C2)NC(=O)c2ccccc2O3)cc1	4%[70.6 µM]
CNC(=O)c1noc([C@@H]2CC(F)(F)CN2Cc2cc(C)nn2C)n1	3%
CN(C)Cc1cc(C[C@@H]2C[C@H](NC(=O)Nc3ccc(F)cc3)C2(C)C)no1	-20%[70.6 µM]
CC1(C(=O)NCc2ccc3c(c2)OCO3)CCCCC(=O)N1 (centres undefined)	-20%
COc1ccc(C(=O)N2CCOC[C@H](Oc3cccnc3)C2)cc1	2%[70.6 µM]
COc1ccc(C(=O)Nc2ccc3c(c2)CN(Cc2ccc(F)cc2)C(=O)C(C)O3)c(OC)c1 (centres undefined)	?
O=C(CCC1CCN(C(=O)c2ccccc2)CC1)NCCc1ccncc1	6%
COCC(=O)N[C@H]1C[C@@H](CO)N(Cc2scnc2C)C1	-5%
O=C(Nc1cccc(-c2nnc3n2CCCC3)c1)C1CCCC1	1%
CC(=O)N1CCC(C(=O)N2CCCn3cc(-c4ccccc4)nc32)CC1	-1%
CCCNC(=O)[C@@H]1Cc2cn(Cc3ccccn3)c3cccc(c23)[C@H](CC(C)C)N1	-26%[70.6 µM]
O=C(Nc1cccc(Cl)c1Cl)N1CCC2(CC1)SCC(=O)N2Cc1ccco1	2%
